Vaccinia Venus: qHTS for Stage-Specific Inhibitors of Vaccinia Orthopoxvirus: Venus Reporter Primary qHTS; Vaccinia virus Venus reporter expression, fluorescence; Potency, µM (doses to about 36.5 µM), for the others: at the top dose activity change, negative = inhibition, hits mostly inhibitors; 330,000 tested, 0.46% active; active means well fitted inhibition curve with a large enough effect; inconclusive means small, poorly fitted or top-dose-only effect; inactive means no such curve, though single readings can be large or run the other way; tested in A549 cells; also: nearly all actives have a fitted effect of over 30% in size; inactives centre near -10
Vaccinia mCherry: qHTS for Stage-Specific Inhibitors of Vaccinia Orthopoxvirus: mCherry Reporter Primary qHTS; Vaccinia virus mCherry reporter infection, fluorescence; about a quarter of the inactives have no number; Potency, µM (highest dose often 36.5 µM), for the others: top-dose activity change, negative = inhibition, most hits filed as inhibitors; 310,000 tested, 0.63% active; AID 720579, 2013; active = well fitted inhibition curve with a large enough effect; inconclusive = small, poorly fitted or top-dose-only effect; inactive = no such curve, though single readings can be large or run the other way; tested in A549 cells; also: nearly all actives have a fitted effect of over 35% in size; inactives centre near -10
Starred values were filed as active, the others as inactive; i = inactive; ? = inconclusive; / = no result given; [ ] = dose if it differs, or a comment. % is scaled to controls: 0 for no effect and ±100 for the full control effect; potency is read from the fitted curve at half-maximal effect.

SMILES	Vaccinia Venus	Vaccinia mCherry
CCN(CC)P(=O)(NC(=O)c1cccn1C)N(CC)CC	-11%	-2%
Nc1nonc1-n1nnc(C(=O)N/N=C/c2cccc(Cl)c2)c1CSc1ccccc1	-13%	-14%
CCn1cc(C(=O)NCCc2ccccc2)c(=O)c2cc(S(=O)(=O)N3CCCCCC3)ccc21	-27%	-1%
O=C(N/N=C1\C(=O)c2cccc3cccc1c23)c1ccc(O)cc1	16%	-5%
COc1cccc(CSc2ccc(S(=O)(=O)N3CCOCC3)cc2C(=O)NCC2CCCO2)c1OC (centres undefined)	-15%	-4%
O=C(CSc1ccc(-c2ccccn2)nn1)c1ccccc1	-14%	?
Cc1ccc(C2CC(c3cccs3)=NN2S(=O)(=O)c2ccc(C)cc2)cc1 (centres undefined)	-4%	-12%
CC(=O)c1ccc(N2CCN(C(=O)CCC(=O)Nc3ccc4nc(N5CCCCC5)cc(C)c4c3)CC2)cc1	-20%	-20%
O=C(NCc1cccc(F)c1)c1ccc(CN2CC(=O)N3CCCCC3C2=O)cc1 (centres undefined)	3%	-2%
CCC(CC)c1nnc(NC(=O)CSCc2c(C)noc2C)s1	-21%	i
C[C@@H]1CCCCO[C@H](CN(C)Cc2ccc(Cl)c(Cl)c2)[C@@H](C)CN([C@H](C)CO)C(=O)c2cc(N(C)C)ccc2O1	-28%	-11%
CCCC12CN3CCN(CC(C3)/C1=N\NC(=O)c1ccncc1)C2	-3%	-12%
C[C@H](CO)N1C[C@H](C)[C@@H](CN(C)S(=O)(=O)c2cccs2)Oc2c(NS(=O)(=O)c3ccccc3)cccc2C1=O	-18%	i
CC1CCCN(S(=O)(=O)c2ccc(NC(=O)C3CCN(C(=O)c4ccco4)CC3)cc2)C1 (centres undefined)	-10%	-17%
C1CC2CN(c3nc4nonc4nc3N3CCSCC3)CCN2C1 (centres undefined)	2%	0%
COc1ccc(NC(=O)c2ccc(COCC(F)(F)C(F)F)cc2)cc1OC	?	?
Cc1cnc2c(c1SCC(=O)NCc1ccc(F)cc1)c(=O)n(C)c(=O)n2C	-6%	-7%
COc1cc2c(cc1OC)C(SC)=NC(C)(C)C2	-23%	-14%
CC(C)(C)OC(=O)NCc1ccc(NC(=O)c2nc[nH]c2C(=O)Nc2cc(Br)ccc2F)cc1	-12%	i
CCN1CCCC1CN(Cc1cc2ccc(C)cc2[nH]c1=O)C(=S)Nc1cccc(OC)c1 (centres undefined)	?	-4%
CC[N+](CC)(CC)C/C(N)=N/O	5%	-5%
COc1ccc(Cc2nc(-c3cccs3)no2)cc1OC	-17%	-18%
O=C(CC1S/C(=N\S(=O)(=O)c2ccc(F)cc2)N(c2ccccc2)C1=O)Nc1ccccc1 (centres undefined)	-7%	-6%
Oc1c(Cl)cc(Cl)cc1C(C#Cc1ccccc1)N1CCOCC1 (centres undefined)	-9%	i
CC(=O)OCC1OC(n2ccc(=O)[nH]c2=O)C(O)C1O (centres undefined)	-5%	-9%
COc1ccc(CCN2C(=O)CCC2(C)C(=O)NC2CCCC2)cc1OC (centres undefined)	3%	i
CC(C)NC(=O)Nc1cccc(Cl)c1	-14%	-8%
O=C(CSc1nc2ccccc2nc1N1CCCC1)Nc1ccc(Cl)cc1	5%	6%
CC(=O)Nc1ccc(S(=O)(=O)Nc2ccc(Cl)nn2)cc1	-10%	i
COc1ccc(OC)c(S(=O)(=O)NCCO)c1	-8%	-17%
COC(=O)c1sccc1NC(=O)CSc1nnnn1-c1ccccc1F	-21%	/
O=C(O)c1csc(Cc2ccccc2)n1	-11%	0%
CC(=O)Nc1ccc(CC#N)cc1	4%	-9%
O=c1c2cc(F)ccc2[nH]c(=S)n1Cc1ccc(F)cc1	-28%	i
Cc1ccc2nc(C)c3c(c2c1)N(c1ccccc1)CC3	-9%	-10%
COC(=O)[C@]12CCCCC=C1N(Cc1ccc3c(c1)OCO3)C(=O)[C@H](CC(=O)N1CCOCC1)C2	4%	-2%
O=C(Nc1cccc2c1CCCC2)c1ccccc1Cl	4%	-13%
O=c1c(NCc2ccccc2Cl)nccn1-c1ccccc1	-6%	-6%
Fc1cccc(-c2nnn3c2nc(NCCc2ccccc2)c2ccccc23)c1	-4%	6%
Cc1ccc(N=Nc2c(C)[nH]n(C(N)=S)c2=O)cc1C	-5%	-22%
O=S(=O)(Nc1ccc(O)c(Sc2nc3ccccc3s2)c1)c1ccc(Cl)cc1	?	-8%
Cc1csc(NC(=S)Nc2cccc(Cl)c2)n1	?	-24%
Cc1nc(NCc2ccc3nsnc3c2)sc1-c1ccn(C)n1	-17%	-21%
C#CCOC(=O)/C(=C/C=C/c1ccccc1)NC(=O)c1ccccc1	-9%	i
O=C(Nc1ncc(Cl)cc1Cl)c1c(F)cccc1Cl	-8%	0%
CC(C)(C)c1ccc(/C=C2\Oc3cc(O)ccc3C2=O)cc1	?	-29%
CCN1CCN(C(=O)c2ccc(CS(=O)Cc3ccc(C)cc3)o2)CC1 (centres undefined)	-11%	i
CCCS(=O)(=O)N1CCCC(C(=O)Oc2ccc(OC)cc2)C1 (centres undefined)	-3%	-13%
COC(=O)C1=C(C)NC2=C(C(=O)CCC2)C1c1cn(Cc2ccc(Br)cc2)nc1-c1ccccc1 (centres undefined)	-27%	-2%
O=C(CSc1n[nH]c(=O)n1C1CC1)NCc1ccccc1	-12%	11%
CC(Oc1ccc(Br)cc1)C(=O)N(Cc1ccccc1)c1c(N)n(Cc2ccccc2)c(=O)[nH]c1=O (centres undefined)	-24%	i
CCc1cccc(NC(=O)C2CCCN2S(=O)(=O)c2cccc3cccnc23)c1 (centres undefined)	?	-17%
Cc1ccc(NC(=O)C(Cc2ccccc2)NC(=O)OCc2ccccc2)cc1C (centres undefined)	-15%	i
O=C(c1cnccn1)N1CCN(c2ccccc2F)CC1	-3%	-1%
Cc1ccc(-c2nc(CS(=O)CC(=O)NC3CCC(C)CC3)c(C)o2)cc1 (centres undefined)	?	?
Cc1cc(OCc2nnc(SC(C)C(=O)O)n2-c2ccccc2)ccc1Cl (centres undefined)	0%	i
CCn1cc(CCC(=O)NCc2ccccc2OC)c2ccccc21	-14%	-14%
CC(C)(C)c1ccc(OCc2nc3ccccc3n2CCOc2ccccc2)cc1	-15%	-7%
CCOc1ccc(CN2C(=O)c3ccccc3Sc3ccc(C(=O)N4CCN(C)CC4)cc32)cc1	-9%	-10%
CCN(CC)S(=O)(=O)c1ccc(/C=C/C(=O)OCC#N)cc1	6%	-20%

(listing goes on)
SMILES	Vaccinia Venus	Vaccinia mCherry
O=C(N/C(=C/c1cccnc1)C(=O)N1CCOCC1)c1ccccc1	16%	i
O=C(/C=C/c1cccs1)N1CCCC1	-3%	i
Cc1ccc(C)c(NC(=O)CSc2nc3[nH]ncc3c(=O)[nH]2)c1	-4%	-15%
NS(=O)(=O)c1ccc(NC(=O)c2c(Cl)cccc2Cl)cc1	-3%	-7%
C/C(=C\C=C(C#N)C#N)c1cc(C#N)c(N)o1	208%[activator]	18%
CN1CCO/C1=C(\C(Cl)=C(Cl)Cl)[N+](=O)[O-]	-3%	-6%
COc1ccc(CCNC(=O)c2cc(=O)[nH]c3ccc(S(=O)(=O)N4CCCCC4C)cc23)cc1OC (centres undefined)	-13%	i
COc1ccccc1C(=O)NCC(=O)OCC(=O)c1ccc2c(c1)-c1ccccc1C2	-4%	-15%
CCOc1ccc(OCC(=O)Nc2nnc3n2CCS3)cc1	-1%	4%
COC(=O)Cc1c(OC)ccn(CCc2c[nH]c3ccccc23)c1=O	-13%	i
CCc1cccc(NC(=O)CSc2nc3ccsc3c(=O)n2CC)c1	-16%	-16%
COc1ccc(OCC(=O)Nc2nc3ccccc3[nH]2)cc1	6%	/
N#Cc1c(SCC(=O)Nc2nncs2)sc2c(O)cc(=O)[nH]c12	2%	i
CCCCn1cc(S(=O)(=O)c2ccc(Cl)cc2)c(=O)c2cc(F)c(N3CCCCC3)cc21	-9%	i
CC(C(=O)NCc1cccnc1)c1ccc([N+](=O)[O-])cc1 (centres undefined)	-17%	i
CC(=O)Nc1ccc(C(=O)Nc2ccc(S(=O)(=O)N3CCCCC3)cc2)cc1	-14%	i
O/N=C(/c1ccc(F)cc1)C1CC1c1c(F)cccc1Cl (centres undefined)	-5%	-17%
O=C(Oc1oc(-c2ccco2)nc1C=Nc1ccccc1)c1ccoc1	-5%	-13%
O=C(Cn1nc(C(=O)O)c2ccccc2c1=O)Nc1cccc(S(=O)(=O)N2CCCC2)c1	-12%	i
CCN(CC)CCC#CC1(O)c2ccccc2-c2ccccc21	-11%	-15%
O=C(C1CCN(S(=O)(=O)c2ccccc2[N+](=O)[O-])CC1)N1CCOCC1	-11%	i
COc1ccc(CC2C(=O)NC(=O)NC2=O)c(OC)c1	-12%	i
O=C(O)c1cc(-c2ccc(/C=C3\NC(=O)N(c4ccc(Cl)cc4)C3=O)o2)ccc1Cl	-1%	i
Cc1oc2cc(Br)c(O)c(Br)c2c1-c1ccccc1	-8%	-11%
FC(F)(F)c1ccnc(NCc2ccc(Cl)cc2)n1	0%	i
CCc1ccc(NC(=O)CSc2nnc(CNC(=O)c3c(F)cccc3Cl)o2)cc1	-9%	-21%
O=c1cc(CSc2nnc(NC3CCCCC3)s2)nc2sccn12	-4%	-12%
COC(=O)c1ccc2c(=O)n(CCCCCC(=O)N3CCN(c4ccc(Cl)cc4)CC3)c(=O)[nH]c2c1	-6%	i
CCOc1cc(C(=O)Nc2nnc(CC)s2)ccc1OCC(=O)N1CCOCC1	-9%	/
NS(=O)(=O)OCC(Cc1ccccc1)N1C(=O)c2ccccc2C1=O (centres undefined)	-17%	-3%
COc1ccc(Oc2nc(-c3ccccc3)ncc2S(=O)(=O)c2ccccc2)cc1	-2%	/
CCOC(=O)c1ccc(NC(=S)NC(=O)c2nn(CC)cc2Br)cc1	-6%	-6%
Cc1ccc2nc(-c3ccc(NS(=O)(=O)c4ccc(F)cc4)cc3)sc2c1	-23%	-22%
Cc1ccccc1C(=O)NC(=S)Nc1ccc(S(=O)(=O)N2CCOCC2)cc1	-25%	-8%
CCCC(=O)N1CC2(CCC)CN(C(=O)CCC)CC(CCC)(C1)C2=O	-13%	/
COCCn1c(SCC#N)nnc1-c1ccc(OC)cc1	-5%	-10%
O=C1C2C3C=CC(CNS(=O)(=O)c4ccccc4)(O3)C2C(=O)N1c1ccc(Cl)cc1 (centres undefined)	-2%	-9%
CC(C)n1cnc2c(Nc3cccc(Cl)c3)nc(N(CCO)CCCO)nc21	11µM*	?
CC(=O)N1CCCc2cc(S(=O)(=O)NCCC3=CCCCC3)ccc21	?	?
CC1C(C#N)=C(N)OC2=C1C(=O)CCC2 (centres undefined)	-5%	/
O=C(N/N=C\c1ccc([N+](=O)[O-])o1)c1cncc(Br)c1	?	?
O=c1cnc2ccccc2n1Cc1ccccc1C(F)(F)F	0%	-14%
O=C(NCCc1ccc(Cl)cc1)c1cc(S(=O)(=O)N2CCCC2)ccc1F	-12%	-17%
Cc1ccc2c(c1)c1c(c(=O)n(-c3cccc(Cl)c3)c(=O)n1CC(=O)NCCC1=CCCCC1)n2C	1%	5%
CCCCNC(=O)CC(=O)Nc1ccccc1C(=O)O	-11%	-23%
CCOC(=O)C1=C(C)N(C[C@@H]2CC[C@@H](Cc3ccc(-c4ccccc4)cc3)O2)C(=O)NC1C1CC1 (some centres undefined)	-10%	-7%
N#CCCn1c(=O)n(CCC#N)c2ccccc21	-12%	i
O=C(CCCCCn1nnc2ccccc2c1=O)Nc1ccccc1Cl	-9%	-17%

Part of the list above, set out differently.
O=C(N/N=C\c1ccc([N+](=O)[O-])o1)c1cncc(Br)c1
  Vaccinia Venus: ?
  Vaccinia mCherry: ?

O=c1cnc2ccccc2n1Cc1ccccc1C(F)(F)F
  Vaccinia Venus: 0%
  Vaccinia mCherry: -14%

O=C(NCCc1ccc(Cl)cc1)c1cc(S(=O)(=O)N2CCCC2)ccc1F
  Vaccinia Venus: -12%
  Vaccinia mCherry: -17%

Cc1ccc2c(c1)c1c(c(=O)n(-c3cccc(Cl)c3)c(=O)n1CC(=O)NCCC1=CCCCC1)n2C
  Vaccinia Venus: 1%
  Vaccinia mCherry: 5%

Compounds above that have a nitro group on carbon (4):
SMILES	Vaccinia Venus	Vaccinia mCherry
CN1CCO/C1=C(\C(Cl)=C(Cl)Cl)[N+](=O)[O-]	-3%	-6%
CC(C(=O)NCc1cccnc1)c1ccc([N+](=O)[O-])cc1 (centres undefined)	-17%	i
O=C(C1CCN(S(=O)(=O)c2ccccc2[N+](=O)[O-])CC1)N1CCOCC1	-11%	i
O=C(N/N=C\c1ccc([N+](=O)[O-])o1)c1cncc(Br)c1	?	?

More structures.
SMILES	Vaccinia Venus	Vaccinia mCherry
Cc1ccc(-n2[nH]c(C)c(/C=N/Nc3ccc([N+](=O)[O-])cc3[N+](=O)[O-])c2=O)cc1C	-23%	-24%
O=C1CN(C(=O)COC(=O)c2ccccc2NCc2ccco2)c2ccccc2N1	-27%	-9%
Fc1cccc(Cl)c1Cn1nnc2c(-n3ccnc3)ncnc21	2%	-2%
Cc1cc(C)c(C)c(S(=O)(=O)Nc2ccc(OCC(=O)O)cc2)c1C	-13%	-4%
CC(C)(C)c1ccc(-c2nc3cc(NC(=O)c4cccc(Br)c4)ccc3o2)cc1	-4%	-14%
